From PubChem
VDR inhibitor: Inhibitors of the vitamin D receptor (VDR): qHTS; Potency, µM, for the others: max response, negative = inhibition, hits mostly inhibitors; AID 504847, 2011; VDR-SRC2-3 peptide fluorescence polarization, 2 h; actives 0.93% (n = 400,000); Vitamin D3 receptor (Homo sapiens), P11473; active means well fitted inhibition curve with a large enough effect; inconclusive means small, poorly fitted or top-dose-only effect, or another doubt; inactive means no such curve, though single readings can be large or run the other way; further: series mostly up to about 120 µM
Target sequence (P11473 whole entry, looked up): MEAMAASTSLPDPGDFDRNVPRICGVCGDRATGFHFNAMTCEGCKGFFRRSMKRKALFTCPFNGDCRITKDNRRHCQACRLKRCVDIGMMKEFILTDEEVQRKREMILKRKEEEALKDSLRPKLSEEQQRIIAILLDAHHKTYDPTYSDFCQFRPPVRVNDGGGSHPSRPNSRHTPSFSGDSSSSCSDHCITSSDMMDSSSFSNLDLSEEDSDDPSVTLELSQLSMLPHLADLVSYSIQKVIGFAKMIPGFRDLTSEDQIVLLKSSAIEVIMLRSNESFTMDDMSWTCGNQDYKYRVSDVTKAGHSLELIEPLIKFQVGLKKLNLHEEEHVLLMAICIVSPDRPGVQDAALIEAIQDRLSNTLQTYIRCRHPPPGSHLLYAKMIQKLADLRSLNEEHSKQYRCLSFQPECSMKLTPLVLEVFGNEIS
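Two reagent solutions held at 4 deg C in the dark were dispensed, compounds pinned at 23 nl, and the mixture incubated 2 h at room temperature. Read-out: fluorescence polarization of VDR–SRC2-3 peptide binding.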
* hit, by the source's call; ? = inconclusive. On the % scale 0 is the no-effect control and ±100 the full control effect; potency means the concentration at half of the fitted maximal effect.

A first look:
SMILES	VDR inhibitor
CC(C)Sc1ncc(Cl)c(C(=O)Nc2nc3ccc(S(C)(=O)=O)cc3s2)n1	-6%
CCOC(=O)CC(=O)CSc1nc(-c2ccccc2)cc(-c2ccccc2)c1C#N	-15%
O=C(CSc1cccc(C(F)(F)F)c1)Nc1ccc(N2CCOCC2)cc1	-4%
c1ccc(Cn2nnc3c(N4CCC5(CC4)OCCO5)ncnc32)cc1	9%

Results, repeating the preview:
SMILES	VDR inhibitor
CC(C)Sc1ncc(Cl)c(C(=O)Nc2nc3ccc(S(C)(=O)=O)cc3s2)n1	-6%
CCOC(=O)CC(=O)CSc1nc(-c2ccccc2)cc(-c2ccccc2)c1C#N	-15%
O=C(CSc1cccc(C(F)(F)F)c1)Nc1ccc(N2CCOCC2)cc1	-4%
c1ccc(Cn2nnc3c(N4CCC5(CC4)OCCO5)ncnc32)cc1	9%
COc1ccccc1N(CC(=O)NCCSCc1ccc(C)cc1)S(=O)(=O)c1ccccc1	-8%
O=C(C[C@H]1C[C@H](C(=O)N2CCOCC2)[C@@]2(CCC3CCCC3)c3[nH]c4cc(-c5ccco5)ccc4c3CCN2C1=O)NCCc1ccccn1	-22%
COc1cc2c(cc1OC)C(c1ccc([N+](=O)[O-])cc1)NCC2 (configuration not stated)	-18%
O=C(O)Cn1nc(N2CCN(c3ccc(F)cc3)CC2)ccc1=O	-7%
C=CCNC(=O)c1ccc(C2SCC(=O)N2Cc2ccccc2)cc1 (configuration not stated)	8%
CCC[N+](C)(C)C(C)C(OC(C)=O)c1ccccc1 (configuration not stated)	11%
Cc1ccc(N(C(=O)COc2ccccc2C)S(=O)(=O)c2ccc(Cl)cc2)cc1	-17%
COc1ccc(S(=O)(=O)Nc2cccc3c2O[C@H](CN(C)Cc2ccncc2)[C@@H](C)CN([C@H](C)CO)C3=O)cc1	11%
N=C1/C(=C/c2cccn2Cc2ccc(Cl)cc2)C(=O)N=C2SC=CN12	7%
CCOc1ccc(/C=C2\NC(=S)NC2=O)cc1	-5%
CCOc1ccc(C(=O)NC(C(=O)NCc2ccccc2OC)C(C)C)cc1 (configuration not stated)	5%
O=C(N/N=C/c1ccccc1OC(=O)c1ccc2c(c1)OCO2)c1cccc(F)c1	-16%
CCN1N=C(c2cc(Cl)sc2Cl)CSC1=O	2%
CN1c2ccccc2C(C)(C)C12CCCC(=O)N2 (configuration not stated)	20%
CCCOc1ccc2c(C)c(CC(=O)OC)c(=O)oc2c1	-4%
COc1ccc(SCC(Cc2ccccc2)N2CCN(CCc3ccccc3)CCC2=O)cc1 (configuration not stated)	-3%
Cc1ccccc1-c1n[nH]c(=S)n1/N=C/c1ccc(-c2ccccc2Br)o1	-17%
O=C(CCCc1nc(-c2ccccc2)no1)N1CCOCC1	-14%
O=C(CSc1nc(C(F)(F)F)cc(=O)[nH]1)Nc1nccs1	-5%
CCc1ccccc1N(C)C(=O)c1cn(CC(C)C)c(=O)c2cc(OC)c(OC)cc12	-13%

A draw from above in order of molar mass, low to high:
SMILES	VDR inhibitor
O=C(CCCc1nc(-c2ccccc2)no1)N1CCOCC1	-14%
O=C(CSc1nc(C(F)(F)F)cc(=O)[nH]1)Nc1nccs1	-5%
Cc1ccccc1-c1n[nH]c(=S)n1/N=C/c1ccc(-c2ccccc2Br)o1	-17%

More results:
SMILES	VDR inhibitor
CC(C)c1nn(-c2cc(C(F)(F)F)ccn2)c(=O)o1	7%
O=C(O)c1cc(C(=O)O)c(C(=O)N(Cc2cccc(Oc3ccccc3)c2)[C@H]2CCCc3ccccc32)cc1C(=O)O	-11%
O=C1COc2ccc(C(=O)c3ccccc3C(=O)NCc3ccccc3)cc2N1	-2%
CC1(C)CCC(=O)N2CC[C@H]3C[C@H](OC(=O)Nc4ccccc4)C[C@@H]1[C@H]32	-20%
COC(=O)c1nn(-c2ccccc2)c(Sc2ccc(Br)cc2)c1/C=N/O	4%
COc1ccc(C(C(=O)NC2CCCCC2)N(Cc2ccco2)C(=O)CNC(=O)c2ccco2)cc1 (configuration not stated)	-9%
COc1ccc(CCNC(=O)C(NS(=O)(=O)c2cccc3nsnc23)C(C)C)cc1OC (configuration not stated)	-29%
CCc1nnc(N/N=C/c2ccc(O)c(OC)c2)n1N	?
CC[C@@H]1C=C(C(=O)O)[C@H](c2cccc(C)c2)N1S(=O)(=O)c1ccc(C)cc1	22%
CCNc1ncc2nc(-c3cn(C)c4ccccc34)c(=O)n(Cc3cccs3)c2n1	-20%
O=C(CSc1nc(-c2ccc(F)cc2)cc(C(F)(F)F)n1)NCCN1CCOCC1	-5%
O=C(Nc1ccc(Cl)cn1)Nc1cccs1	21%
COCC(=O)NCc1nc2ccccc2[nH]1	7%
CCOc1cc(/C=N/NC(=O)C(=O)N2CCCC2)ccc1O	-3%
COc1cc(OC)cc(C(=O)O/N=C(\N)c2ccncc2)c1	1%
CCCOC(=O)Nc1cccc(C(C)=O)c1	1%
COc1ccc(CC(=O)Nc2cc(C)ccn2)cc1OC	-17%
Cc1cccc(C(=O)NNC(=O)c2ccccc2C)c1	3%
COc1ccc(C2C(C(=O)c3ccco3)=C(O)C(=O)N2c2nnc(C)s2)cc1OC (configuration not stated)	18%
COc1ccc(/C=C2\Sc3ccc(C(=O)NCC4CCCO4)cc3N(C)C2=O)cc1 (configuration not stated)	-9%
CCCc1ncc(C(O)(c2ccccc2)c2ccccc2)n1C	-5%
CCC(C)(C)C1CCC(=NNC(=S)Nc2ccccc2)CC1 (configuration not stated)	-13%
CC(=O)OCCN(CCOC(C)=O)c1c(C)[nH]c(=O)[nH]c1=O	-7%
CCOC(=O)c1cnn(-c2nc(-c3ccccc3)nc3c2COC(C)(C)C3)c1N	9%

A few values from the results shown:
Under VDR inhibitor, `CC(=O)OCCN(CCOC(C)=O)c1c(C)[nH]c(=O)[nH]c1=O` is listed with -7%
Under VDR inhibitor, `Cc1cccc(C(=O)NNC(=O)c2ccccc2C)c1` is listed with 3%
Under VDR inhibitor, `CCCc1ncc(C(O)(c2ccccc2)c2ccccc2)n1C` is listed with -5%
Under VDR inhibitor, `COCC(=O)NCc1nc2ccccc2[nH]1` is listed with 7%

The listing continues:
SMILES	VDR inhibitor
CCOC(=O)N1CCC(NC(=O)c2cc(C(=O)Nc3ccc(OCC)cc3)ccc2CO)CC1	-2%
COC(=O)CSc1nnc(-c2ccc(S(=O)(=O)NCc3ccccc3Cl)cc2)o1	-2%
COc1cccc(-c2[nH]nc3c2C(c2ccoc2)C(C#N)=C(N)O3)c1 (configuration not stated)	-5%
CN1CCCC(OC(=O)c2ccc(C(C)(C)C)cc2)C1 (configuration not stated)	3%
Cc1cccc(-c2nc3scc(CCNS(=O)(=O)c4ccc(F)c(C(F)(F)F)c4)n3n2)c1	4%
O=C(O)c1ccc(NC(=S)NC(=O)c2ccc(-c3ccc(Br)cc3)o2)cc1	?
Cc1cc(Nc2ccc([N+](=O)[O-])cc2)nc2ccccc12	3%
COc1ccc2c(c1)c(C(=O)N/N=C/c1ccc(OC)c(OC)c1)c(C)n2C	-3%
CC(C)(C)c1nnc(NC(=O)C2CC(=O)N(CCc3ccc(F)cc3)C2)s1 (configuration not stated)	-13%
CC(=O)OC[C@H]1O[C@@H](O[C@H]2C[C@]3(C)C(C[C@@H](O)C4C([C@]5(C)CC[C@@H](C(C)(C)O)O5)CC[C@]43C)[C@@]3(C)CC[C@H](O)C(C)(C)C23)[C@H](O[C@@H]2O[C@@H](C)[C@H](O)[C@@H](O)[C@H]2O)[C@@H](O)[C@@H]1O (some centres not stated)	-17%
CCCNC(=O)CSc1nc(Cc2ccccc2)nc2ccccc12	-15%
CCOc1ccc(N2C(=O)CNC2=S)cc1	1%

Reprinted from the part before: 2 compounds, then new ones.
SMILES	VDR inhibitor
CCCNC(=O)CSc1nc(Cc2ccccc2)nc2ccccc12	-15%
CCOc1ccc(N2C(=O)CNC2=S)cc1	1%
CN1C[N+]([O-])=C(c2ccccc2)C1(C)C	-6%
O=C(Nc1ccccc1Cl)Nc1ccnn1C1CCN(C(=O)c2cscn2)CC1	4%
CC(C(=O)N(C)C1CCS(=O)(=O)C1)N1C(=O)/C(=C/c2ccc(F)cc2)SC1=S (configuration not stated)	79µM*
O=C(Cc1c(F)cccc1Cl)N1CCCC1	-2%
COC(=O)C(C(C)=O)C(NC(=O)OC(C)(C)C)c1ccccc1 (configuration not stated)	10%
O=C(Cc1ccc(F)cc1)OCC(=O)N1CCN(S(=O)(=O)c2ccc(Cl)cc2)CC1	26%
CC1CCCCN1C(=O)C12CCC(C)(/C(=N/O)C1)C2(C)C (configuration not stated)	6%
Cc1ccc(S(=O)(=O)N2CCCCC2C)cc1[N+](=O)[O-] (configuration not stated)	-4%
COc1ccc(Cl)cc1Nc1sc(C(=O)c2ccccc2)c(N)c1C(=O)Nc1ccccc1	-17%
Cc1ccccc1N(C(=O)Cc1cccs1)C(C(=O)NCC1CCCO1)c1cccnc1 (configuration not stated)	18%
CS(=O)(=O)N(CC(=O)Nc1ccccc1C(=O)N1CCOCC1)c1cccc([N+](=O)[O-])c1	2%
CCOC(=O)c1ccc(N2C(=O)Cc3ccccc3C2=O)cc1	0%
CCOc1ccccc1OCC(=O)OCC(=O)Nc1ncc(Cl)cc1Cl	0%
Cc1ccc(C(O)Cn2nc(C)cc2C)cc1 (configuration not stated)	-17%
Cc1ccccc1NC(=O)c1cccc(S(=O)(=O)N2CCCCC2)c1	19%
CCCN(CCC)C(=O)CC(c1ccccc1)c1ccc(C)cc1O (configuration not stated)	2%
Cc1[nH]nc2ncc(C(=O)c3cc(F)ccc3O)cc12	29%
NC(=O)CC(NC(=O)c1ccccc1)c1ccc(NC2CCC2)c([N+](=O)[O-])c1 (configuration not stated)	-11%
Cc1cc(C(=O)O)ccc1-n1c(C)cc(/C=C2\SC(=O)NC2=O)c1C	-19%
C/C(Cn1cnc([N+](=O)[O-])n1)=N\NC(=O)c1ccccc1	-4%
O=C(NCc1ccco1)c1cccc2c1C(=O)c1ccc(/C=C/c3ccccc3)cc1S2(=O)=O	?
O=[N+]([O-])c1cc(Br)c(O)c(/C=N/Nc2nnnn2-c2cccc3ccccc23)c1	?
COc1ccc(-n2cnnc2SCC(=O)Nc2cc(C(C)(C)C)nn2-c2ccccc2)cc1	3%
COCCCNC(=S)N1CCN(C(=O)c2ccco2)CC1	19%
CCOC(=O)c1c(S(=O)(=O)NCC(=O)N(C)Cc2ccccc2)c(C)n(C)c1C	6%
CN(C)CCCn1c(=S)[nH]c2sc3c(c2c1=O)CCCC3	?
O=C(NCCc1ccc(Cl)cc1)c1cccc(NC2=NC3CS(=O)(=O)CC3S2)c1 (configuration not stated)	3%
COCCNC(=O)c1onc(CSc2ccccc2F)c1C(=O)O	-18%
Cc1nc([N+](=O)[O-])c(N2CCOCC2)n1Cc1ccccc1	-13%
COc1ccc(C(=O)Nc2ccc(S(=O)(=O)N3CCOCC3)cc2)cc1[N+](=O)[O-]	10%
O=C(Cc1c(O)c2ccccc2[nH]c1=O)NCc1cccc(F)c1	-6%
CCNC(=S)Nc1ccc(C)c(Cl)c1	-24%
COc1ccc(NC(=O)C2=NN(c3ccccc3)C(=O)CC2)cn1	2%
COc1cccc(Cn2c(=O)n(-c3cccc(Cl)c3C)c(=O)c3c4c(sc32)CN(C(C)=O)CC4)c1	2%
CCc1ccc(S(=O)(=O)Nc2cccc(-c3ccc(N4CCCCC4)nn3)c2)s1	9%
O=C(Nc1ccc(Cl)cc1)NN1CC(=O)N(c2cccc(C(F)(F)F)c2)CC1=O	12%
COc1cc(/C=C(\C#N)C(=O)N2CCCCC2)ccc1O	2%
O=C(CCN1C(=O)/C(=C/c2ccccc2Cl)SC1=S)NN1CCOCC1	-1%
CCc1[nH]nc(C(=O)N2CCCC(N3CCN(c4ccccc4C)CC3)C2)c1C (configuration not stated)	10%
CCOCCOCCC(C(=O)O)P(=O)(c1ccccc1)c1ccccc1 (configuration not stated)	-5%
OCC[C@H]1C[C@@H](O)[C@H](O)[C@@]2(CCCc3ccccc3O2)O1	-13%
FC(F)(F)c1ccccc1NC(=S)Nc1cccc2cnccc12	4%
CC1(C)Cc2nc3sc4c(SCC(=O)NCc5ccccc5)ncnc4c3cc2CO1	-5%
O=C(NC1=NCCS1)c1ccc(Cl)c(S(=O)(=O)N2CCCCCC2)c1	-3%
COc1ccc(-c2noc(CCC(=O)NCCc3cccc(C)c3)n2)cc1	-9%
CC(/C=C/c1ccccc1)=N\NC(=O)Cn1nc(C)cc1C	1%
COc1ccc(-c2cc(=O)oc(-c3cccc(C)c3)n2)cc1	-11%
CCN(CC)C(=O)N1CCC(NC(=O)Cc2ccccc2)CC1	4%
c1ccc(Cn2c(-c3cncs3)nc3ccccc32)cc1	6%
COc1ccc(N(CC(=O)NC2CCCCC2)C(=O)CCCC(=O)Nc2ccccn2)cc1	9%
Cc1ccc(CCNC(=O)CCNS(=O)(=O)c2ccc3c(c2)oc(=O)n3C)cc1	5%
O=C(C1CCN(S(=O)(=O)Cc2ccccc2)CC1)N1CCN(c2ccccc2F)CC1	6%
CCOc1ccc(CCNC(=O)C2CC(=O)N(CCc3ccccc3)C2)cc1OCC (configuration not stated)	6%
O=C(Nc1ccccc1C(=O)N1CCOCC1)C1CC(=O)N(c2ccc(F)cc2)C1 (configuration not stated)	3%
O=C1NC2(CCCCC2)C(=O)N1/N=C/c1ccccc1Br	-12%
COc1ccc2cc(CCNS(=O)(=O)c3c(C)cc(C)cc3C)c(=O)[nH]c2c1	1%
Oc1ccc(NCc2cccc(OCc3ccccc3)c2)cc1	?
CCOCCOC(=O)c1cccc2c1-c1ccccc1C2=O	-8%
COc1ccc2c(c1)/C(=C\c1cccc(/C=C3/C(=O)Nc4ccc(OC)cc43)n1)C(=O)N2	?
Cc1ccc(S(=O)(=O)C2(C(=O)Nc3ccc(C)c(Cl)c3)CC2)cc1	-5%
Cc1ccc(S(=O)(=O)N2CCN(CCC#N)CC2)cc1	-11%

This is a subset; count on the stated rates, not on these rows.
